# Source: PubChem
# Marburg entry inh: inhibitors of Marburg virus binding or cell entry. Marburg virus pseudotyped entry inhibition, cell reporter; control for the full effect not named in the record; about a third of the inactives were read at about 46 µM. Potency, µM (titrated, usually from 37.8 µM), for the others: top-dose activity change, negative = inhibition, most hits filed as inhibitors. 300,000 tested, 1.8% active; active = well fitted inhibition curve with a large enough effect; inconclusive = small, poorly fitted or top-dose-only effect, or effect the other way; inactive = flat fitted curve, though single readings scatter; tested in HEK293 cells; about a fifth of its hits are not listed in these tables; note: luciferase read-out
# Numbers without * were called inactive; ? = inconclusive; & = joins results of further samples; [ ] = another dose, or the depositor's remark. % is set by controls: 0 for no effect and ±100 for the full control effect; potency is the fitted concentration of half-maximal effect. A portion of the library; the hit share may differ from the screen's.
SMILES | Marburg entry inh
CSc1nc2sc3c(c2c(=O)[nH]1)CC[C@@H](C)C3 | 23%
N#CC(C(=O)C1=C(Cl)CCCC1)=C1SCCCS1 | 3%
C[C@@H]1C(c2ccccc2)=Cc2[nH]c(=O)[nH]c2C[C@@H]1C(=O)N1CCCC1 | 8%[14.2 µM]
Cc1ccc2c(C)nc(NC3=NCN(C(C)C)CN3)nc2c1 | 1%
O=C1N=c2ccccc2=NC1C(=O)c1ccccc1 (stereo not drawn) | 6%
COC(=O)C1=C(C(=O)OC)[C@@H]2N(C)c3ccc(OC)cc3[C@@]23C[C@@H](C(=O)OC)N(C(=O)N2CCNC2=O)C3=N1 | -26%[14.2 µM]
O[C@@H]1CN(Cc2cccs2)[C@@H](c2ccccc2)C[C@@H]1n1cc(-c2ccc(F)cc2)nn1 | ?
C=CCCN1C(=O)NC(c2ccccc2)C(C(=O)OC)=C1C (stereo not drawn) | -16%[14.2 µM]
CCc1cc2c(nc1CC)CCN(CCC(C)=NOCC[C@@H]1C=C[C@H](OC(C)=O)[C@@H](COC(C)=O)O1)C2 | ?
CC(=O)OC[C@H]1O[C@H](C#CCCCc2ccccc2)C=C[C@@H]1OC(C)=O | ?
CCOC(=O)C1=C2C=C(OC)C=CC2OC1CN(CC)CC (stereo not drawn) | -17%[46.1 µM]
COc1ccc(COC(=O)N/N=C2/C[C@@H](O)[C@@H](O)[C@@H]3[C@@H]4C(=O)N(C[C@@H]5CCCO5)C(=O)[C@H]4CC[C@H]23)cc1 | ?
O=C(O)CN1C(=O)/C(=C\c2ccsc2)SC1=S | ?
CCOC(=O)c1c2c(n(C3CCCCC3)c1CN(C)C)CC(Br)=C(OC)C2 | 10µM*
COc1ccc2c3c(c(=O)oc2c1)[C@H]1O[C@](c2ccsc2)(Cc2cc(C#N)ccc21)O3 | -14%[14.2 µM]
COc1ccc(O[C@H]2C=C[C@@H](c3ccccc3)O[C@@H]2CO/N=C\[C@@H](C)[C@H](OCc2ccccc2)C(C)C)cc1 | ?
C=CC[C@@H]1C=CC(O/N=C/C[C@@H]2C=C[C@H](OC(C)=O)[C@@H](COC(C)=O)O2)[C@@H](CO)O1 (stereo partly drawn) | 4%[14.2 µM]
COCC=CC1=CC2=CC(=O)C(C)(OC(=O)c3cnc4ccccc4n3)C(=O)C2=CN1Cc1ccc(OC)cc1 (stereo not drawn) | -2%[14.2 µM]
C=CC1=C2C=C(C3CC3)N(C3CCCC3)C=C2C(=O)C(C)(OC(=O)c2ccco2)C1=O (stereo not drawn) | 21%&21%[14.2 µM]
CCCCc1nc2c(c3c1C[C@H](C)OC3)CN(C(=O)C1CCCCC1)CC2 | -34%&-34%&-34%[14.2 µM]
COc1cc([C@H]2C[C@H](C(F)(F)F)n3ncc(C(=O)O)c3N2)cc(OC)c1OC | -7%
CCOC(=O)CN1C(=O)NC(c2ccccc2)C(C(C)=O)=C1C (stereo not drawn) | ?
NC(=O)N1CCC2=C1CCCC2 | 5%[46.1 µM]
CC12C=C(C=Cc3ccc(C(F)(F)F)cc3)C(C)(C1)C(c1ccc(C(F)(F)F)cc1)CC2=O (stereo not drawn) | 6%[14.2 µM]
O=C1C2=C(C(=O)c3ccccc31)[C@H]1O[C@](CCCCN3C(=O)c4ccccc4C3=O)(Cc3c1ccc1ccccc31)O2 | ?
CCN1C(=NCc2cccc(Cl)c2)N[C@@H](CCc2ccccc2)[C@H](C(=O)OC)[C@H]1C | ?
CCOC(=O)CN1C(=O)[C@]2(OCCC=C[C@@H]2C)c2c(Br)cccc21 | -20%[14.2 µM]
CC(=O)OC[C@H]1O[C@H](c2cc(C)cc(C)c2)C=C[C@@H]1OC(C)=O | ?
CC1(C)[C@H]2CC[C@]1(C)[C@H](NC(=O)CCN1CCCCC1)C2 | -19%
COc1ccccc1[C@@]1(CC(=O)N2CCOCC2)CCO[C@@H](C(C)C)C1 | -1%
CC(C)=CCN1C(=O)C2(CC(C)=C[C@@H](C)O2)c2c(Br)cccc21 (stereo partly drawn) | 11%[14.2 µM]
CC(=O)OC[C@H]1O[C@H](CCON=C(C)CCC(=O)OC[C@H]2O[C@H](C#Cc3ccccc3)C=C[C@H]2Oc2ccc(C)cc2)C=C[C@H]1OC(C)=O | 21%[14.2 µM]
CCc1cc2c(nc1CC)CCN(CC/C(C)=N/OC[C@@H](O)COCc1ccco1)C2 | 1%&1%[14.2 µM]
COCC=CC1=CC2=CC(=O)C(C)(OC(=O)c3cnc4ccccc4n3)C(=O)C2=CN1CCc1c[nH]c2ccccc12 (stereo not drawn) | 22%[14.2 µM]
CC(=O)OC[C@H]1O[C@H](CCO/N=C(\C)CCN2CCCCc3nc(C)c(C)cc32)C=C[C@@H]1OC(C)=O | 16%[14.2 µM]
CC(=O)OC[C@@H]1O[C@H](C/C=N\OC[C@@H](O)[C@H]2O[C@H]3OC(C)(C)O[C@H]3[C@@H]2O)C=C[C@@H]1OC(C)=O | ?
CCCCCCC(=O)Cc1cc(OC)c(OC)cc1/C=C(/C(C)=O)C(=O)OC | -11%[14.2 µM]
Cc1ccc(CN2[C@@H](c3ccccc3)COc3c(Cl)cccc3S2(=O)=O)cc1 | ?
CC(CCN1CCCc2nc(C)c(C)cc21)=NOC[C@@H](O)COCc1ccco1 | ?
O=c1oc2ccccc2c2c1[C@H]1O[C@](c3ccsc3)(Cc3c1ccc1ccccc31)O2 | 5%[14.2 µM]
Cc1ccc(CN2CC(N3CCN(C(=O)c4ccco4)CC3)CS2(=O)=O)cc1 (stereo not drawn) | ?
COc1ccc([C@@H]2C(C#N)=C(C)NC3=C2C(=O)c2ccccc23)cc1 | -23%
CCCCCCCc1cc2ccccc2c2c(C=O)c(CCCC)c(C(=O)OC)n12 | ?
COc1ccc([C@H]2C[C@H](c3ccccc3)Nc3nc(N)nn32)cc1 | 1%
COc1ccccc1C=CC1=CC2(C)CC1(C)C(c1ccccc1OC)CC2=O (stereo not drawn) | -29%[14.2 µM]
COCCOCCOCCC(=O)N[C@@H]1C[C@@H]2CC[C@@]1(C)C2(C)C | -1%
C[C@H]1C=CCC(=O)NCc2cccc(c2)CNC(=O)N[C@@H]1c1ccccc1 | ?
CCNc1nc(Oc2ccccc2)nc(O[C@@H](C)C(=O)OCC)n1 | 0%
COC(=O)C1=C(C(=O)OC)[C@@H]2N(Cc3ccccc3)c3ccccc3[C@@]23CCC(=O)N(CC2CCCCC2)C3=N1 | 11%[14.2 µM]
CC1=CC[C@@H](C)O[C@@]2(C1)C(=O)Nc1ccccc12 | -9%&13%&9%[14.2 µM]

# The list goes on.
SMILES | Marburg entry inh
N#C[C@@H](Cc1ccc(O)c(O)c1)C(=O)N1CCc2ccccc21 | ?
CC(C)=CCC/C(C)=C/CO/N=C1\C[C@@H](O)[C@@H](O)[C@@H]2[C@@H]3C(=O)N(Cc4ccc5c(c4)OCO5)C(=O)[C@@H]3CC[C@@H]12 | -17%[14.2 µM]
COC(=O)N[C@@H](c1ccccc1)[C@]1(C(=O)OC)CCCC1=O | -27%[14.2 µM]
Cc1cc2c(c(=O)n1Cc1ccccc1)[C@H]1O[C@](CCCCN3C(=O)c4ccccc4C3=O)(Cc3cc(C#N)ccc31)O2 | 8%[14.2 µM]
CC(=O)C1=C(C)N(Cc2ccccc2)C(=O)N[C@H]1c1ccc(Br)cc1 | 0%[14.2 µM]
C#CCN1C(=O)[C@]2(OCCC=C[C@@H]2C)c2cc(OC)ccc21 | 9%[14.2 µM]
CC(=O)OC[C@H]1O[C@H](c2ccc(C(C)=O)cc2)C=C[C@@H]1OC(C)=O | 2%[14.2 µM]
C[C@H](NC(=O)OCc1ccccc1)C(=O)OCN1C(=O)c2ccccc2C1=O | -6%
COc1ccc(COC(=O)N/N=C2\C[C@@H](O)[C@@H](O)[C@@H]3[C@@H]4C(=O)N(Cc5ccccc5)C(=O)[C@@H]4CC[C@H]23)cc1 | -25%[14.2 µM]
COC(=O)CC=C[C@@H](C)[C@@H](C=NOC[C@@H](O)COCc1ccco1)OC | -14%[14.2 µM]
C=CCCCC=C(C)[C@H](OCc1ccc(OC)cc1)[C@H](CCC=C(C)C(N)=O)OC | 10%[14.2 µM]
COc1cccc([C@@H]2Oc3ccc(OC)cc3/C(=N/OC[C@@H](C)[C@H](OCc3ccccc3)C(C)C)[C@@H]2O)c1 | 10%[14.2 µM]
CC(C)[C@H]1C(C#N)=C(N)Oc2n[nH]c(C(C)(C)C)c21 | -10%
COc1ccc(O[C@H]2C=C[C@@H](c3ccccc3)O[C@H]2COC(=O)CCC(C)=NO[C@@H]2O[C@H](COC(C)=O)[C@@H](OC(C)=O)[C@H](OC(C)=O)[C@@H]2OC(C)=O)cc1 | -23%[14.2 µM]
CCOC(=O)C1CCN(c2nc3ccccc3nc2[C@@H](C#N)C(=O)OC(C)C)CC1 | -13%[46.1 µM]
CC(C)=CCC1(CC=C(C)C)C(=O)C(C(=O)c2ccccc2)=C2OC(C)(C)CCC2(CC=C(C)C)C1=O (stereo not drawn) | -6%&-6%[14.2 µM]
CCOC(=O)CN1C(=O)NC(c2cccs2)C(C(=O)OC)=C1C (stereo not drawn) | -17%[14.2 µM]
COC(=O)[C@@H]1CC[C@H](C)[C@@H](c2ccc(C)cc2)N1C(=O)c1ccc(/C=N\OC[C@@H]2O[C@H](c3ccccc3)C=C[C@@H]2Oc2ccc(OC)cc2)cc1 | -7%[14.2 µM]
CCCCCCn1c([C@H](C)O)nc2ccccc21 | -12%
O=C(C1=C(O)C(=O)N(CCN2CCOCC2)[C@H]1c1cccnc1)c1cc2ccccc2o1 | 1%
CN1c2ccccc2[C@@]2(O)C(=O)[C@@]1(C)[C@@H]1C=CCC[C@H]12 | 29%[14.2 µM]
COC(=O)C1=C(C(=O)OC)[C@@H]2N(C)c3ccccc3[C@@]23C[C@@H](CO)N(C(=O)c2ccc(Br)cc2)C3=N1 | -34%[14.2 µM]
C=CC[C@@H]1C=C[C@H](ON=C(C)CCN2CCCCc3nc(C)c(C)cc32)[C@H](CO)O1 | -23%[14.2 µM]
C=C(CCN1C=C(C(=O)OCC)C(c2ccccc2)NC1=O)c1ccccc1 (stereo not drawn) | 10%[14.2 µM]
C=C(C)C(=O)OC[C@H]1CN2[C@H](c3ccc(Br)cc3)[C@H](C)CC[C@H]2C(=O)O1 | ?
CC(C)C[C@@H]1COc2cc(NC3CC3)ccc2S(=O)(=O)N1 | ?
CCOC(=O)CSC1=C(C#N)[C@H](c2ccc3c(c2)OCO3)CC(=O)N1 | 16µM*

# Filtered by structure, the entries above containing sulfur
SMILES | Marburg entry inh
CSc1nc2sc3c(c2c(=O)[nH]1)CC[C@@H](C)C3 | 23%
N#CC(C(=O)C1=C(Cl)CCCC1)=C1SCCCS1 | 3%
O[C@@H]1CN(Cc2cccs2)[C@@H](c2ccccc2)C[C@@H]1n1cc(-c2ccc(F)cc2)nn1 | ?
O=C(O)CN1C(=O)/C(=C\c2ccsc2)SC1=S | ?
COc1ccc2c3c(c(=O)oc2c1)[C@H]1O[C@](c2ccsc2)(Cc2cc(C#N)ccc21)O3 | -14%[14.2 µM]
Cc1ccc(CN2[C@@H](c3ccccc3)COc3c(Cl)cccc3S2(=O)=O)cc1 | ?
O=c1oc2ccccc2c2c1[C@H]1O[C@](c3ccsc3)(Cc3c1ccc1ccccc31)O2 | 5%[14.2 µM]
Cc1ccc(CN2CC(N3CCN(C(=O)c4ccco4)CC3)CS2(=O)=O)cc1 (stereo not drawn) | ?
CCOC(=O)CN1C(=O)NC(c2cccs2)C(C(=O)OC)=C1C (stereo not drawn) | -17%[14.2 µM]
CC(C)C[C@@H]1COc2cc(NC3CC3)ccc2S(=O)(=O)N1 | ?
CCOC(=O)CSC1=C(C#N)[C@H](c2ccc3c(c2)OCO3)CC(=O)N1 | 16µM*
